GALR2 agonist – activates the human galanin receptor 2. GALR2-expressing cells, agonist activation read-out. activation, %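 (tested at 5 µM)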. 140,000 compounds, 0.48% hits. AID 803;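 active means above mean plus 3 SD of all compounds, about 5% in these data, not always enough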;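 further: 0% = vehicle buffer wells and 100% = reference agonist at full effect; tested in CHO reporter cells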
Target sequence (O43603 whole entry, looked up): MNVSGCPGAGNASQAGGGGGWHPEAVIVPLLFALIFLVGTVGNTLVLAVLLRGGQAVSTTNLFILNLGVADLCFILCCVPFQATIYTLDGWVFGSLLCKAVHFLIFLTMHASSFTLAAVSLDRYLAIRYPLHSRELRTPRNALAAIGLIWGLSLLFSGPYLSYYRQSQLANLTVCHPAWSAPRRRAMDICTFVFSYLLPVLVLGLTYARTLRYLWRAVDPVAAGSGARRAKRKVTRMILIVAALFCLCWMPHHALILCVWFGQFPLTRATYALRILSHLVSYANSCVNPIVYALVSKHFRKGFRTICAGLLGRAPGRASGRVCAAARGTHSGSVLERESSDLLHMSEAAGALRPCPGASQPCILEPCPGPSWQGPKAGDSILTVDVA
HSV augment – increases HSV replication in cells. 220,000 compounds, 0.005% hits. HSV replication augmentation in cells, fold increase. maximum fold increase;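 active means peak rise of 1.5-fold or more in the series; tested in PC3 cells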;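 further: first round at 10 µM; read as green reporter fluorescence; hits show the peak of a series up to 25 µM; 1 = signal of infected wells without compound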
PKD1 kinase inh – inhibitors of human PKD1 kinase; PKD1 kinase fluorescence polarization assay; inhibition, %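 (about 10 µM by stock and volumes)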; 200,000 compounds, 0.056% hits; AID 797;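 active means inhibition of 50% or more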;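 further: controls were vehicle for no effect and a reference inhibitor for full effect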
RGS16-Gao HTS – RGS16-Galphao interaction regulator (human). binding response (% of control), % at 10 µM. O15492+P09471. 220,000 compounds, 0.38% hits. bead-based flow cytometry RGS16-Galphao binding, fluorescence; actives lie on both sides;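 active means below 25% or above 175%, edge rows of some plates excepted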;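 further: Galphao activated by GDP with aluminum fluoride before binding; 100% = wells without compound and 0% = beads without RGS; some results beyond the cut were filed as inactive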
Target sequence (O15492 whole entry, looked up): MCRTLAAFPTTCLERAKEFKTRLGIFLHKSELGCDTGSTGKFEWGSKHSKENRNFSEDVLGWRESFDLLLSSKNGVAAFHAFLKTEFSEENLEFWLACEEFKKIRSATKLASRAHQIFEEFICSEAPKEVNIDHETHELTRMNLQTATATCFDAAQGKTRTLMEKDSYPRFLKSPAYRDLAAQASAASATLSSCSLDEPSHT
Target sequence (P09471 whole entry, looked up): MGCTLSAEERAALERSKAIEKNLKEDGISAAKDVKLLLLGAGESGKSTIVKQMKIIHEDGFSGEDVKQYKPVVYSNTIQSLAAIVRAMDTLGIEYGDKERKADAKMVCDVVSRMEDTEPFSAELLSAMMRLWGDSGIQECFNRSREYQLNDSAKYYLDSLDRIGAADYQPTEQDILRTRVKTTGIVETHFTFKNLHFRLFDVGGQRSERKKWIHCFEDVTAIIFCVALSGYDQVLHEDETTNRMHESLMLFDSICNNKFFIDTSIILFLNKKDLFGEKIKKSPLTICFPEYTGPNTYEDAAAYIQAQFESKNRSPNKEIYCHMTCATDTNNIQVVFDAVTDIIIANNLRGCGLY
Insulin prom inh – TRM-6 insulin promoter activity inhibition; TRM-6 cells (human fetal islet line), insulin promoter-eGFP reporter, imaging; reporter expression induced with tamoxifen; inhibition, % at 2 µM; 130,000 compounds, 0.9% hits;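 active means inhibition above the mean plus 3 SD, with well images judged a real hit on visual review, cut at about 60% in these data, passing the limit was not always enough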
Insulin prom inh cell count – also measured in Insulin prom inh; calls as there; normalized cell count, %; measured here: cell count, toxicity; reference of the scale not given here;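 cells exposed to compound for 48 h; stained nuclei by imaging scaled within each plate; lower means fewer cells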
HSV augment primary fold – also measured in HSV augment; calls as there; fold increase; compound at 10 µM; measured here: primary screen fold increase 10 uM; tested in PC3 cells;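 GFP signal in the first replicate; 1 = infected wells without compound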
* marks the source's active call; other numbers are inactive results; i = inactive; x = not tested or not shown.

Order of values – HSV augment, PKD1 kinase inh, GALR2 agonist, Insulin prom inh, HSV augment primary fold, Insulin prom inh cell count, RGS16-Gao HTS
[1] Cc1cc(C)n(-c2ccc(C(=O)Nc3nnc(C)s3)cc2)n1
 : i, 3, 0.1, 7, 0.94, 149, 105
[2] COc1ccccc1N(CC(=O)Nc1ccccc1C)S(C)(=O)=O
 : i, -2, -2.9, -8, 0.87, 114, 104
[3] CCCC(=O)Nc1ccc(Nc2ccccc2)cc1
 : i, -16, -0.9, 50, 0.76, 91, 65
[4] CCn1ncc(C2=NOC(C(=O)Nc3cccc(O)c3)C2)c1C (stereo not drawn)
 : i, 2, x, 0, 1, 83, 97
[5] Cc1ccc(NC(=O)CCC(=O)N/N=C/c2coc3ccccc3c2=O)cc1
 : i, x, x, x, 0.84, x, 103
[6] CCCC(CCC)C(=O)Nc1cccc(C(=O)O)c1
 : i, -3, -2.2, 13, 1.3, 126, 102
[7] CN1C(=O)c2ccccc2C(C(=O)O)C1c1cccc(F)c1 (stereo not drawn)
 : i, -1, -1.9, x, 0.92, x, 146
[8] Fc1ccccc1N1CCN(CC2CC3C=CC2C3)CC1 (stereo not drawn)
 : i, 4, -3.4, -34, 0.84, 82, 125
[9] S=C(NCc1ccc2c(c1)OCO2)NC1CC1
 : i, -1, x, x, 0.96, x, 100
[10] O=C(CN1C(=O)C2C3C=CC(C3)C2C1=O)NCCc1ccccc1 (stereo not drawn)
 : i, -10, -0.6, 46, 0.96, 184, 99
[11] Cc1ccc(S(=O)(=O)N2CCC(C(=O)Nc3ccccc3N3CCCCC3)CC2)cc1
 : i, 1, -0.5, -45, 0.86, 79, 97
[12] CCC(C)(C)NC(=O)CC(c1ccc(OC)cc1)n1cccc1 (stereo not drawn)
 : i, -1, 0.2, 9, 0.99, 116, 103
[13] CCCC/C=C/C(NC(=O)CCc1ccccc1)c1ccccc1 (stereo not drawn)
 : i, -1, -0.8, -10, 0.97, 112, 94
[14] Cc1ccc(S(=O)(=O)Nc2ccccc2C(=O)Nc2ccc(S(=O)(=O)Nc3nccc(C)n3)cc2)cc1
 : i, 2, 0.2, -46, 0.8, 107, 113
[15] O=C(NC(=S)Nc1ccc2[nH]ncc2c1)c1ccccc1
 : i, 3, -2.9, 29, 0.88, 88, 100
[16] Cc1ccc(C(NC(=O)N2CCOCC2)C(Cl)Cl)cc1F (stereo not drawn)
 : i, -11, -0.7, x, 1.1, x, 99
[17] CCOC(=O)N1CCN(C(=O)CSc2nnc(-c3ccc(C(C)(C)C)cc3)o2)CC1
 : i, 7, -0.6, -43, 1.1, 98, 97
[18] Cc1c(Cl)cccc1N1C(=O)CC(NNC(=O)c2cccnc2)C1=O (stereo not drawn)
 : i, -7, 0.4, x, 1, x, 106
[19] COC(=O)c1ccc(CSc2nc3sc(C(=O)O)c(C)c3c(=O)[nH]2)cc1
 : i, 0, x, -43, 0.93, 91, 101
[20] CCCCOC(=O)n1c(=O)oc2ccc(S(=O)(=O)N3CCCCC3)cc21
 : i, x, x, x, 1, x, 98
[21] ClC1(Cl)CC1CSc1ncn[nH]1 (stereo not drawn)
 : i, -8, x, -33, 0.97, 83, 106
[22] COc1ccc(-c2noc(CCC(=O)N3CCN(c4cc(C)ccc4C)CC3)n2)cc1
 : i, -2, -2.2, -18, 1, 125, 90
[23] O=C(NC(=S)Nc1cccc(NC(=O)c2ccccc2)c1)c1cccc([N+](=O)[O-])c1
 : i, 4, -1.2, 32, 1.1, 103, 113
[24] COc1ccc(N2CCN(c3ncnc4c3cnn4-c3ccc(C)cc3C)CC2)cc1
 : x, -4, -1.1, -391, x, 104, 107
[25] COc1ccc(Cl)cc1NC(=O)NCCN1CCCCC1
 : i, -4, x, x, 0.83, x, 105
[26] COc1cc(/C=N/N2C(=O)c3ccccc3NC2(C)c2cccc([N+](=O)[O-])c2)cc(Br)c1O (stereo not drawn)
 : i, -1, -2.5, -12, 0.83, 87, 101
[27] O=C(NC1(C(F)(F)F)NC(=O)N(CCc2ccccc2)C1=O)C1CC1 (stereo not drawn)
 : i, 7, -1.0, -148, 1, 129, 102
[28] CC(C(=O)NCC1CCCCC1)N(C)Cc1cccc(Cl)c1 (stereo not drawn)
 : i, -4, x, x, 1, x, 89
[29] CSc1ccc(S(=O)(=O)NCCSC(C)(C)C)cc1
 : i, -2, -2.0, 34, 0.93, 91, 105
[30] Cc1c(NC(=O)CSc2ccc(Cl)cc2)c(=O)n(-c2ccccc2)n1C
 : i, -1, x, x, 1.3, x, 106

Structural class: those above with a tert-butyl group.
Order of values – HSV augment, PKD1 kinase inh, GALR2 agonist, Insulin prom inh, HSV augment primary fold, Insulin prom inh cell count, RGS16-Gao HTS
[17] CCOC(=O)N1CCN(C(=O)CSc2nnc(-c3ccc(C(C)(C)C)cc3)o2)CC1
 : i, 7, -0.6, -43, 1.1, 98, 97
[29] CSc1ccc(S(=O)(=O)NCCSC(C)(C)C)cc1
 : i, -2, -2.0, 34, 0.93, 91, 105

Complete entries as entered above. Values in the order: HSV augment | PKD1 kinase inh | GALR2 agonist | Insulin prom inh | HSV augment primary fold | Insulin prom inh cell count | RGS16-Gao HTS
COc1ccc(N2CCN(c3ncnc4c3cnn4-c3ccc(C)cc3C)CC2)cc1 in the list: x | -4 | -1.1 | -391 | x | 104 | 107
O=C(NC(=S)Nc1cccc(NC(=O)c2ccccc2)c1)c1cccc([N+](=O)[O-])c1 in the list: i | 4 | -1.2 | 32 | 1.1 | 103 | 113
CCCC/C=C/C(NC(=O)CCc1ccccc1)c1ccccc1 (stereo not drawn) in the list: i | -1 | -0.8 | -10 | 0.97 | 112 | 94
Cc1c(NC(=O)CSc2ccc(Cl)cc2)c(=O)n(-c2ccccc2)n1C in the list: i | -1 | x | x | 1.3 | x | 106
Cc1ccc(S(=O)(=O)N2CCC(C(=O)Nc3ccccc3N3CCCCC3)CC2)cc1 in the list: i | 1 | -0.5 | -45 | 0.86 | 79 | 97

(listing goes on)
Order of values – HSV augment, PKD1 kinase inh, GALR2 agonist, Insulin prom inh, HSV augment primary fold, Insulin prom inh cell count, RGS16-Gao HTS
[31] O=C(CCC1COc2ccccc2O1)NCC1COc2ccccc2O1 (stereo not drawn)
 : i, -9, -2.5, 0, 0.95, 75, 100
[32] O=C(NC1=NN(c2ccccc2)CC1)Nc1ccccc1F
 : i, x, x, x, 0.97, x, 102
[33] Cc1cccc(Nc2cc(=O)[nH]c(=O)[nH]2)c1C
 : i, 8, 0.7, -20, 1, 76, 113
[34] C=CCOn1c(=O)c(-c2cc3ccccc3o2)[n+]([O-])c2ccccc21
 : i, -14, 1.1, x, 1, x, 97
[35] CC(C)(C)c1nc2scc(-c3cccs3)c2c(=O)o1
 : i, -7, -2.4, 31, 1.1, 125, 76
[36] Cc1ccccc1C(=O)NNC1=NCCC1
 : i, 1, -2.0, 18, 0.85, 103, 166
[37] Cc1ccc(C(=O)N/C(=C\c2ccccc2F)c2nc(=S)[nH][nH]2)cc1
 : i, 0, x, x, 0.96, x, 99
[38] Nc1c(NCCC2=CCCCC2)c(=O)[nH]c(=O)n1Cc1ccccc1
 : x, -4, 0.4, x, x, x, 93
[39] CC(=O)Cc1nnn(-c2cc(C)on2)n1
 : i, x, x, x, 0.91, x, 102
[40] NC(=O)NC(c1ccccc1)c1ccccc1
 : i, 3, 0.2, 13, 0.73, 129, 100
[41] CCN(CC)S(=O)(=O)c1cccc(C(=O)Nc2cc(C)cc(C)c2)c1
 : i, 3, -0.9, 33, 0.87, 60, 99
[42] Cc1ccccc1C(=O)c1cccn1CC(=O)NCCN1CCN(c2cccc(C)c2C)CC1
 : i, 1, 2.3, -53, 0.77, 105, 131
[43] O=C(NCc1ccccc1Cl)c1cnn2cccnc12
 : i, -10, 0.4, 52, 0.86, 73, 107
[44] CCCn1c(CNc2ccccc2O)nc2ccccc21
 : i, -8, -3.4, -327, 1.1, 33, 100
[45] CC(C)OP(=O)(OC(C)C)C(NC(=O)c1ccccc1)C(N)=O (stereo not drawn)
 : i, x, x, x, 0.99, x, 100
[46] Cc1ccn2cc(C(=O)Nc3ccc4c(c3)OCCO4)nc2c1
 : i, -9, -0.3, x, 0.8, x, 101
[47] CCOc1ccc(Cc2noc3c2C(=O)CC(C)(C)C3)cc1OCC
 : i, 1, x, x, 0.92, x, 97
[48] Cc1cc(C)nc(N/N=C/C2=C(N3CCOCC3)C(=C/c3ccccc3)/CC2)n1
 : i, -9, -1.4, -50, 1.2, 97, 101
[49] c1ccc(-c2ccnc3nc(N4CCN(c5ccccc5)CC4)nn23)cc1
 : i, -5, -1.5, -22, 0.83, 131, 101
[50] CCN1/C(=C2\C(=O)N(c3ccccc3)N=C2C)C=Cc2cc(C)ccc21
 : i, 1, 0.1, -8, 0.95, 101, 107
[51] O=C(Nc1c2c(nc3ccccc13)CCCC2)c1ccccc1Br
 : i, 1, -0.1, x, 1.1, x, 119
[52] Cc1ccsc1C(=O)N1CCC(CO)(Cc2ccccc2)CC1
 : i, -3, x, 50, 0.94, 127, 100
[53] COc1ccc(CNC(=O)CN2C(=O)NC3(CCCCCC3)C2=O)cc1OC
 : i, 4, x, -244, 0.92, 93, 103
[54] O=C(/C=C/c1ccc(Cl)cc1)Nc1ccc(Br)cn1
 : i, -6, x, x, 0.87, x, 98
[55] COC(=O)CC(NC(=O)Nc1ccc(C)cc1)c1cccc([N+](=O)[O-])c1 (stereo not drawn)
 : i, -13, x, 14, 0.95, 125, 20*
[56] O=C(Nc1ccc2c(c1)OCCO2)c1cc2sccc2n1Cc1ccccc1
 : i, 2, -1.6, -11, 1, 112, 102
[57] CCOc1nc(Nc2ccc(OC)cc2)nc(OCC)n1
 : i, 0, -2.1, 0, 0.96, 113, 100
[58] CCC(=O)Nc1c(C(=O)N2CCCCCC2)cnn1-c1ccc(C)c(C)c1
 : i, -6, -2.1, 46, 0.97, 130, 100
[59] CCOc1cc(/C=N/NC(=O)Nc2ccccc2)ccc1O
 : i, 1, x, 53, 1, 100, 96
[60] Cc1oc(=O)c(NC(=O)c2ccccc2)cc1C(C)O (stereo not drawn)
 : i, -3, x, x, 0.94, x, 103

Continuation.
Order of values – HSV augment, PKD1 kinase inh, GALR2 agonist, Insulin prom inh, HSV augment primary fold, Insulin prom inh cell count, RGS16-Gao HTS
[61] CCOC(=O)c1ccc2c(c1)nc(SCC(=O)N1CCOCC1)n2CC
 : i, -7, x, -47, 1.1, 56, 102
[62] N#Cc1cc(-c2ccccc2)c[nH]c1=O
 : i, -6, -0.1, 0, 1, 72, 89
[63] O=C1C2CC=CCC2C(=O)N1c1ccc(NCCc2ccc(O)cc2)c([N+](=O)[O-])c1 (stereo not drawn)
 : i, -12, -3.8, -114, 0.91, 60, 90
[64] CCOc1ccccc1NC(=O)c1ccc(-n2cncn2)nc1
 : i, -6, x, x, 0.98, x, 98
[65] CCCCCCCOC(=O)C[N+](C)(C)CCOC1CC2CCC1(C)C2(C)C (stereo not drawn)
 : i, 1, -1.2, x, 0.69, x, 106
[66] CN(C)CC(C)(C)CNS(=O)(=O)c1cccc(Cl)c1Cl
 : i, -4, 0.1, -21, 0.89, 82, 97
[67] CCOc1cc(C(=O)NCc2ccccc2)ccc1OCC(=O)N1CCOCC1
 : i, -6, x, -55, 0.87, 53, 74
[68] Cc1ccc(S(=O)(=O)N2CCN(c3ccc4nnc(-c5ccccc5)n4n3)CC2)cc1
 : i, 4, -1.7, x, 0.88, x, 102
[69] CC(C)N(C(=O)CSc1nc2ccccc2n1Cc1ccc(F)cc1)C(C)C
 : i, -1, -2.0, 17, 0.9, 114, 103
[70] O=C(Nc1ccc(NC(=O)C2CCCCC2)nc1)c1ccccn1
 : i, -2, x, x, 0.89, x, 99
[71] O=C(Nc1ccc(S(=O)(=O)NCc2ccccc2)cc1)c1ccc(Br)o1
 : i, 3, -1.4, 50, 0.98, 85, 100
[72] CCN(CC)S(=O)(=O)c1ccc(Cl)c(C(=O)NC)c1
 : i, 5, -0.5, 43, 0.98, 118, 101
[73] COc1ccccc1NC(=O)Nc1ccc2[nH]c(=O)[nH]c2c1
 : i, -4, x, 33, 1.5, 32, 104
[74] Cc1[nH][nH]c(=O)c1C(c1cc([N+](=O)[O-])ccc1O)c1c(C)[nH][nH]c1=O
 : i, 2, -0.5, -22, 1, 57, 104
[75] Cn1nc(C(=O)NCCc2ccc(S(N)(=O)=O)cc2)c2ccccc2c1=O
 : i, x, x, x, 0.91, x, 96
[76] Cc1ccc(NC(=S)N2CCN(c3ncccn3)CC2)c(C)c1
 : i, -7, 0.4, x, 1.1, x, 137
[77] COC(=O)c1ccc(C(=O)OC)c(NS(=O)(=O)c2ccc(NC(C)=O)cc2)c1
 : i, -6, -0.5, x, 0.95, x, 100
[78] c1ccc(-n2nnnc2NC2CCCCCC2)cc1
 : i, -3, -2.8, 32, 0.85, 61, 104
